KCNQ2 inh: KCNQ2 channel blockers in CHO-K1 cells – cell-based, FluxOR thallium flux, B-score, primary screen (AID 2156) | O88943 | 20 min; stronger effect = lower value; only compounds with negative scores are shown here; some inactives read as strong as hits | B-score at 10 µM | 310,000 tested, 1.1% active;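 active means fluorescence ratio B-score at most minus 3 library SDs, with starting brightness B-score within 2 library SDs, cut at about -5.5 in these data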
Target sequence (O88943 whole entry, looked up): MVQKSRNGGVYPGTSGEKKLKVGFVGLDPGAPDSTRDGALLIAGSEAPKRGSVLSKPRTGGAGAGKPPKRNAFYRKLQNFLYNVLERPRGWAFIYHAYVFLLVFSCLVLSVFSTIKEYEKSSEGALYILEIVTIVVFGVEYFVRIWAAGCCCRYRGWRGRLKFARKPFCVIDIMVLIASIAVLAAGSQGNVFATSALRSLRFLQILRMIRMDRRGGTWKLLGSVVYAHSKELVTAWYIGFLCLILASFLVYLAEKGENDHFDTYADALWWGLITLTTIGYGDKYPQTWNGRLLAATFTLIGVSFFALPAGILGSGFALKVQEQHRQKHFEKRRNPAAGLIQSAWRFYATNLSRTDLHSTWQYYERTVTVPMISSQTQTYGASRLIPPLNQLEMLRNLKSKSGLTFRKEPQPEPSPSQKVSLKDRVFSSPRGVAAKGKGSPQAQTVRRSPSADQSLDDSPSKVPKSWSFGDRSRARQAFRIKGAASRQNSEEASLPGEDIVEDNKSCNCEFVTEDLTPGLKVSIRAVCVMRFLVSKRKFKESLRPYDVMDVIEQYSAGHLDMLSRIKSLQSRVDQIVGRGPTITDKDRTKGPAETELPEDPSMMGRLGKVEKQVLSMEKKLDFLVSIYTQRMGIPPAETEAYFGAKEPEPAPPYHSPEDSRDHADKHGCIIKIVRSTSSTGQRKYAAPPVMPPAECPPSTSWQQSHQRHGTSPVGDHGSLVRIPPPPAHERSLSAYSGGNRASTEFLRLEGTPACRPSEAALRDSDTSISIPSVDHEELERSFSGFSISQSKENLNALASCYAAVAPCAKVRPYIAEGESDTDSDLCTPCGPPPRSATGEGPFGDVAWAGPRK
KCNQ2 inh baseline: further read-out of KCNQ2 inh, marked with its call; B-score; measured here: initial fluorescence intensity artifact check;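 brightness before thallium and not channel activity; 0 = typical well and far values either way flag optical interference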
Numbers without * were called inactive; i = inactive. The list is partial (hit frequency here may not be typical).

Value order: KCNQ2 inh	KCNQ2 inh baseline
CN1C(=O)/C(=C/c2ccccc2Cl)Sc2ccc(C(=O)NCc3cccnc3)cc21
    i	-0.72
O=C(O)CN(c1ccccn1)S(=O)(=O)c1ccc(Cl)cc1
    i	2.56
CCOc1ncccc1C(=O)OCc1c(F)cccc1Cl
    i	-0.02
COc1ccc(Oc2cn[nH]c2-c2ccc(OC)cc2O)cc1
    i	-0.25
Cc1nc(NC(=O)c2ccccc2)sc1C1(C)CC(c2ccc(OC(F)(F)F)cc2)=NO1 (stereo unspecified)
    i	-1.27
Cc1cc(=O)n2nc(N3CCCC(C(=O)NCc4ccc(Cl)cc4)C3)sc2n1 (stereo unspecified)
    i	-0.33
Cc1ccc(O)c(CNc2nc3ccccc3n2C(C)C)c1
    i	-1.26
COC(=O)c1cn(C(=O)c2cc(OC)c(OC)c(OC)c2)c2ccccc12
    i	-0.94
CC(C)N1CC(C(=O)Nc2ccc(C#N)cc2)CC1=O (stereo unspecified)
    i	1.04
Cc1nc(NC(C)C)c2oc3ccccc3c2n1
    i	0.21
COc1cc(NC(=O)c2csc(-c3ccncc3)n2)cc(C(=O)Nc2cccc(C(F)(F)F)c2)c1
    -6.87*	0.78*
COc1ccc(C(=O)Oc2cccnc2)cc1
    i	1.51
COC(=O)C(C)Sc1n[nH]c(=S)s1 (stereo unspecified)
    i	1.69
Cc1ccccc1CN1CCN(S(C)(=O)=O)CC1
    i	4.32
CC(=O)N1c2ccc(S(=O)(=O)N3CCCC3C(=O)NCc3ccccc3Cl)cc2CC1C (stereo unspecified)
    i	-1.67
CC(/C=N/NC(=O)c1cc(-c2ccc(C)s2)[nH]n1)=C\c1ccccc1
    i	-0.16
Cc1ccc(/C=C2\SC(=S)N(CCCC(=O)Nc3cccnc3)C2=O)cc1
    i	0.56
CCCn1c(SCC(=O)Nc2ccc(OCC)cc2)nnc1C(C)C
    i	-1.23
CCSc1nnc2c(n1)OC=Nc1ccc(Br)cc1-2
    i	0.24
CCOc1ccc(S(=O)(=O)NC(Cc2cnc[nH]2)C(=O)O)cc1 (stereo unspecified)
    i	0.65

Given as labelled records: entries from further up.
Molecule: COc1ccc(C(=O)Oc2cccnc2)cc1
  KCNQ2 inh: i	KCNQ2 inh baseline: 1.51

Molecule: COC(=O)C(C)Sc1n[nH]c(=S)s1 (stereo unspecified)
  KCNQ2 inh: i	KCNQ2 inh baseline: 1.69

Molecule: Cc1ccccc1CN1CCN(S(C)(=O)=O)CC1
  KCNQ2 inh: i	KCNQ2 inh baseline: 4.32

Molecule: CC(=O)N1c2ccc(S(=O)(=O)N3CCCC3C(=O)NCc3ccccc3Cl)cc2CC1C (stereo unspecified)
  KCNQ2 inh: i	KCNQ2 inh baseline: -1.67

The listing continues:
Value order: KCNQ2 inh	KCNQ2 inh baseline
O=C(Nc1ccccc1N1CCOCC1)c1ccc2c(c1)OCO2
    i	-0.91
Cc1cc(N2CCN(c3ccccn3)CC2)n2c(nc3ccccc32)c1C#N
    i	0.02
c1ccc(C2CC(c3ccccc3)C(c3ccccc3)N2)cc1 (stereo unspecified)
    i	-2.2
Cc1noc(C)c1C(=O)NNc1cc(Cl)ccc1Cl
    i	0.34
O=C1C(=O)N(Cc2ccncc2)C(c2ccccc2F)/C1=C(\O)c1ccc2c(c1)OCCO2 (stereo unspecified)
    i	0.48
COc1ccc(CS(=O)(=O)CC(C)(O)c2ccc(Cl)cc2)cc1 (stereo unspecified)
    i	0.26
CCN1CCN(c2nc(-c3ccccn3)nc3ccccc23)CC1
    i	0.55
CCC(=O)N1CCN(c2ccc(NC(=O)c3ccco3)cc2)CC1
    i	-2.18
COC(=O)c1cccc(-n2cnnn2)c1
    i	0.06
CCN(CC)S(=O)(=O)c1ccc2[nH]cc(C(=O)NCCC3=CCCCC3)c(=O)c2c1
    i	-0.28
O=C(NCc1ccc(Cl)s1)c1cc(COc2c(F)cccc2F)on1
    i	0.82
Cc1ccc2[nH]c(=O)c(-c3noc(C(C)C)n3)cc2c1
    i	-1.23
CC1(C)CC(=O)C2=C(C1)NC(SCC(=O)Nc1ccccc1)=C(C#N)C21CCCCC1
    i	-0.32
O=C(/C=C/Nc1ccc([N+](=O)[O-])cc1Br)c1cccc2ccccc12
    i	1.77
COc1ccc(C)cc1S(=O)(=O)N1CCN(c2ccccc2)CC1
    i	-0.28
COc1ccccc1NC(=O)Cn1c(C)nc2c(sc(=S)n2Cc2ccco2)c1=O
    i	0.29
O=C(CN(Cc1ccc(F)cc1)C(=O)CCC(=O)Nc1ccccn1)NCc1ccc(F)cc1
    i	0.03
Fc1ccc(Br)cc1C1C=C(c2ccc(Br)cc2)Nc2ncnn21 (stereo unspecified)
    i	1.52
COc1ccc(NC(=O)C(c2ccccc2)c2ccccc2)cn1
    i	2.13
Nc1ccc2nc(NC(=O)C3CCCCC3)sc2c1
    i	-1.05
CC(=O)N1CCSc2ccc(S(=O)(=O)N3CCC(C)CC3)cc21
    i	-1.22
Cc1ccc(C2C(C#N)=C(N)SC(N)=C2C#N)c(C)c1
    i	-0.27
CCOc1cc(C)c(Cl)cc1S(=O)(=O)NCc1ccc2c(c1)OCO2
    i	1.46
Cc1nc2cc(NC(=O)N3CCN(c4ccccn4)CC3)ccc2o1
    i	1.01
CCOC(=O)c1cncc(C(=O)O)c1
    i	-0.15
CN1CCN(CC(=O)NN2CC(=O)N(c3ccc(F)cc3)CC2=O)CC1
    i	-1.15
CCOc1ccc(N(C)C(=O)CCc2nnc3ccc(NCc4ccco4)nn23)cc1
    i	0.9
COc1ccc(C2(C(=O)NCCc3ccccc3)CCCC2)cc1OC
    i	-0.62
Cc1ccc(S(=O)(=O)NC2(C(F)(F)F)C(=O)Nc3c2c(=O)[nH]c(=O)n3-c2ccccc2)cc1 (stereo unspecified)
    i	-0.01
COc1ccc2c(Cl)c(-c3nnc(SCC(N)=O)n3C)sc2c1
    i	-0.01
Oc1ccccc1C1=NN(c2ccccc2)C(c2ccccc2)C1 (stereo unspecified)
    i	-0.19
N#Cc1nc(-c2ccco2)oc1NCCN1CCOCC1
    i	-0.85
COc1ccccc1N1CCN(C(=O)CCNC(=O)Cn2ccc3ccccc3c2=O)CC1
    i	0.09
COc1ccc(C2CC(c3ccc4ccccc4c3OC(C)=O)=NN2C(=O)/C=C/c2ccccc2)cc1 (stereo unspecified)
    i	0.81
CCOC(=O)C1=C(C)NC(=O)NC1c1ccc(-c2ccccc2F)o1 (stereo unspecified)
    i	0.68
O=C(CC1S/C(=N/N=C/c2c[nH]c3ccc(OCc4ccccc4)cc23)NC1=O)Nc1ccccc1 (stereo unspecified)
    i	-1.42
CC12CCC(C(=O)Nc3ccc(Cl)cc3)([C@H](Br)C1=O)C2(C)C (stereo partly specified)
    i	0.91
COc1ccc(/C=C2\CCCC3C2=NN(C(=O)CSc2n[nH]c(N)n2)C3c2ccc(OC)cc2)cc1 (stereo unspecified)
    i	-0.1
C/C(=C\c1cccc(Cl)c1Cl)C(=O)c1c(C)cc(C)[nH]c1=O
    i	0.86
O=C1CC(c2ccccc2)CC(O)=C1C=NC1CCCCCC1 (stereo unspecified)
    i	-1.13
O=C(OC1CCCCC1=O)c1cccc(S(=O)(=O)NCc2ccccc2)c1 (stereo unspecified)
    i	-0.89
Cc1ccc(C(=O)c2coc3ccc(O)c(CN4CCN(C)CC4)c23)cc1
    i	-0.53
COc1ccccc1-n1c(=O)[nH]c2c(C(N)=O)nc(-c3cccnc3)nc21
    i	-0.62
CC(=O)C1=C(O)C(=O)N(c2ccccn2)C1c1ccc(C)cc1 (stereo unspecified)
    i	-0.01
Cc1cc(C)n(CC(=O)n2c3c(c4ccccc42)CCCC3)n1
    i	-0.63
CC1CCCCN1CCNC(=O)C1CCCN(c2ncnc3c2nc2n3CCCCC2)C1 (stereo unspecified)
    i	-1.6
Nc1nonc1-c1nc2ccccc2[nH]1
    i	0.22
CCN(CC)S(=O)(=O)c1cc([N+](=O)[O-])ccc1NNC(=O)Nc1ccc(F)cc1
    i	-0.39
COc1ccc(OC(C)C(=O)NC2CCCCCCC2)cc1 (stereo unspecified)
    i	-0.79
CC(=O)Nc1cccc(NC(=O)CS(=O)(=O)c2cn(CC(=O)N3CCCC3)c3ccccc23)c1
    i	-0.98
N#CC(c1ccc(Cl)cc1)c1nc2ccccc2nc1C(F)(F)F (stereo unspecified)
    i	0.39
CC(=O)c1ccc(NS(=O)(=O)c2ccc(CC(C)C)cc2)cc1
    i	-0.45
CCOC(=O)c1cc2c(=O)n3ccccc3nc2n(Cc2ccco2)c1=NC(=O)c1ccc(OC)cc1
    i	1.37
COC(=O)[C@H]1C[C@@H]1[C@H](NC(=O)c1cccnc1)c1ccccc1
    i	1.19
O=C(NCCC1=CCCCC1)C1CCC(=O)N(Cc2cccc(C(F)(F)F)c2)C1 (stereo unspecified)
    i	0.04
Cc1n[nH]c(=O)c2c(NC(=O)CSc3nc4ccccc4c(=O)n3-c3ccc(OC(F)F)cc3)oc(C)c12
    i	-0.1
C/C=C/c1cc(CN2CCN(c3ccc(OC)cc3)CC2)c(O)c(OC)c1
    i	0.85
C=C(C)C(=O)Nc1cccc(C2=NOC3(C2)C[C@@H](C(N)=O)N(C(=O)/C=C/CC)C3)c1 (stereo partly specified)
    i	-0.65
CC1=NC(C)Cc2ccccc21 (stereo unspecified)
    i	0.47
O=S(=O)(NCc1ccccc1)c1ccccc1Br
    i	-0.7

Next section.
SMILES,KCNQ2 inh,KCNQ2 inh baseline
[N-]=[N+]=CC(=O)CNC(=O)[C@@H](Cc1ccccc1)N1C(=O)c2ccccc2C1=O,i,0.01
O=C(C[n+]1ccc(/C=N/O)cc1)NC1CCCCC1,i,1.25
O=C1CCCN1CCCNS(=O)(=O)c1ccc(Br)s1,i,0.4
CCOC(=O)C1=C(N)N(c2cc(S(=O)(=O)N3CCOCC3)ccc2Cl)C(=O)C1,i,0.82
COc1cccc(C(C(=O)NC2CCCC2)N(C(=O)c2ccco2)c2ccccc2F)c1OC (stereo unspecified),i,0.22
CCc1nnc(NC(=O)C2CCCCN2S(=O)(=O)c2ccccc2)s1 (stereo unspecified),i,1.9
COc1cccc(NC(=O)CSc2nnc3ccc(-c4ccccn4)nn23)c1,i,0.67
COc1ccc(C2(c3ccc(OC)cc3)NC(=O)N(CC(=O)Nc3ccccc3)C2=O)cc1,i,-0.08
CCC(=O)N1CCN(C(C)=O)C1c1ccccc1 (stereo unspecified),i,1.42
CC1CC(C)CN(C(=O)/C=C/c2ccc([N+](=O)[O-])s2)C1 (stereo unspecified),i,-0.85
Cc1ccc(C2=NN=C(NC(=O)CSc3nncn3C)SC2)cc1,i,1.06
COc1ccc(Cl)cc1NC(=S)N1CCN(S(C)(=O)=O)CC1,i,3.78
Cc1ccc(NS(=O)(=O)c2ccc(NC(=O)c3cccs3)cc2)c(C)c1,i,-0.33
O=C1c2ccccc2C(=O)c2cc(S(=O)(=O)Nc3ccccc3)ccc21,i,-0.64
CCOC(=O)c1sc(-c2ccc(Br)cc2)cc1N,i,-0.15
COc1cccc(/C=C2\SC(=S)NC2=O)c1OS(=O)(=O)c1ccc(NC(C)=O)cc1,i,2.02
CCOc1ccc(NC(=O)CN(C)C(=O)c2cn(-c3ccc(F)cc3)nc2-c2cccc(OC)c2)cc1OCC,i,-0.67
CCC(=O)N1C(C(=O)N2CCCC2)CSC1c1ccc(OC)cc1 (stereo unspecified),i,1.59
COc1ccccc1C1/C(=C(/O)c2ccccc2)C(=O)C(=O)N1CC(C)C (stereo unspecified),i,-0.46
COc1ccc(CNC(=O)CCC(=O)c2ccc(C)cc2)cc1OC,i,1.59

One compound at a time, from the list above. Values in the order: KCNQ2 inh	KCNQ2 inh baseline
Listed for O=C(C[n+]1ccc(/C=N/O)cc1)NC1CCCCC1 : i	1.25
Listed for CC1CC(C)CN(C(=O)/C=C/c2ccc([N+](=O)[O-])s2)C1 (stereo unspecified) : i	-0.85
Listed for COc1cccc(C(C(=O)NC2CCCC2)N(C(=O)c2ccco2)c2ccccc2F)c1OC (stereo unspecified) : i	0.22
Listed for CCOc1ccc(NC(=O)CN(C)C(=O)c2cn(-c3ccc(F)cc3)nc2-c2cccc(OC)c2)cc1OCC : i	-0.67

Further results
SMILES,KCNQ2 inh,KCNQ2 inh baseline
O=C(c1ccc([N+](=O)[O-])o1)N1CCN(c2nc3ccc(F)cc3s2)CC1,i,-1.28
CC(C)c1cc(C(=O)OCC(=O)NC(=O)NCc2ccco2)c(O)c(C(C)C)c1,i,0.82
Cc1ccc(N=N/C(=C\O)C(=O)c2ccc(Cl)cc2)cc1,i,0.18
Cc1cccc(C(=O)NCC(=O)OCC(=O)c2ccc(Cl)s2)c1,i,0.33
COc1ccc(C(=O)CN2CCN(c3ncccn3)CC2)cc1,i,-1.39
COC(=O)CCC(=O)OC1(C)C(=O)C=C2C=C(C3CC3)N(CCCCO)C=C2C1=O (stereo unspecified),i,-0.41
CCCn1cc(CN2CCCC(C(=O)c3ccc4c(c3)OCO4)C2)c(C)n1 (stereo unspecified),i,0.74
O=C(COC(=O)/C=C/c1cccc(Cl)c1)Nc1ccccc1-c1ccccc1,i,-0.93
CCC(CC)C(=O)Nc1c2c(nn1-c1ccc(F)cc1)CS(=O)(=O)C2,i,-0.87
Cc1cccc(C)c1OC(=O)CN(c1ccc(Cl)cc1)S(C)(=O)=O,i,0.3
CN(C)c1c2ccccc2nc2c(F)c(F)c(F)c(F)c12,i,-1.74
C1CN(c2nc3nonc3nc2N2CCOCC2)CCO1,i,-1.39
COc1ccc(C(=O)N(C)Cc2ccc(C)o2)cc1OC1CCN(C(C)=O)CC1,i,0.09
CSC[C@H](NC(=O)Cc1c(C)c2cc3c(C)c(C)oc3cc2oc1=O)C(=O)N[C@@H](Cc1ccccc1)C(=O)O,i,-1.08
CC(=O)N1c2ccc(S(=O)(=O)N3CCC(C(=O)N4CCN(c5ccc(Cl)cc5)CC4)CC3)cc2CC1C (stereo unspecified),i,-0.57

Screens from PubChem BioAssay.
